Biofilm kill mix = mixture kills Candida albicans biofilm cells; C. albicans biofilm persisters + clotrimazole, fluorescence viability; primary screen in compound mixtures of four per well; inhibition, % at 7.6 µM; actives 0.02% (n = 120,000);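 active = inhibition above 30.3% in the primary screen of four-compound pools, then above 30% when the compound was retested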;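 also: compounds exposed to preformed 24 h biofilms for 48 h; the number belongs to the whole pool; some results filed as inactive read as strong as hits; inactives centre near 12; 0% = biofilm with clotrimazole alone and 100% = kill control; retested singly at about 60 µM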
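Test system: C. albicans CAF4-2 wild-type biofilms; buffer or medium: RPMI/MOPS medium, pH 7.0; schedule: 24 h biofilm formation, then 48 h compound exposure, 37 °C; detection: Alamar Blue fluorescence; measure: percent inhibition of biofilm viability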
* hit, by the source's call.

SMILES	Biofilm kill mix
CC(C)CCC(CCN1CCCC1)c1ccc2c(c1)OCO2 (stereo unspecified)	18
O=C(NCCSc1ccc(Cl)cc1)c1ccc(CN2CCOCC2)cc1	19
COc1ccc(OCCNC(=O)c2cccc(Oc3ccc(C(F)(F)F)cc3[N+](=O)[O-])c2)cc1	17
CCOC(=O)C1C(=O)OC(C)(C)C1C(CC)C(=O)c1c(C)cc(C)cc1C (stereo unspecified)	22
COC(=O)CSc1nc2cc(OC)ccc2n1C	6
O=C(NCc1ccccn1)C1CCN(S(=O)(=O)c2cc(Cl)ccc2Cl)CC1	15
CNS(=O)(=O)c1cccc(C(=O)OCC(=O)N(CCC#N)c2ccccc2)c1	9
CCc1onc(C)c1C(=O)Nc1ccc2c(c1)OCO2	11
Cc1nnc(SCC2=C(C(=O)O)N3C(=O)C(NC(=O)Cn4nc(C(F)F)cc4C)C3SC2)s1 (stereo unspecified)	20
CN(C)S(=O)(=O)c1cccc(NC(=O)COC(=O)c2ccc([N+](=O)[O-])o2)c1	7
CCOc1ccc(C(=O)N/N=C(/C)C2C(=O)c3ccccc3C2=O)cc1	10
COc1ccc(OC)c(C2NC(=S)NC3=C2N2CCC3CC2)c1 (stereo unspecified)	11
CCOC(=O)c1ccc(S(=O)(=O)NNC(=O)c2ccc3c(c2)nc(C)n3CC)cc1	9
Cc1cc(=O)[nH]c(SCC(=O)Nc2ccc(C)c(S(=O)(=O)N3CCCCC3)c2)n1	19
COCC(C)NC(C(=O)Nc1cccc(C(C)=O)c1)c1ccccc1 (stereo unspecified)	4
Clc1ccc(-c2nc3ccccn3c2CN2CCCCC2)cc1	16
CCS(=O)(=O)c1ccc2c(c1)N(S(C)(=O)=O)CC(C(=O)NN)O2 (stereo unspecified)	2
CCOc1ccc(CNc2ccc(CNc3ncn[nH]3)cc2)cc1	16
Cc1cccc(NNC(=O)C(=O)NNc2cccc(C)c2)c1	1
O=C1C2C(C(=O)N1/N=C/c1cccc([N+](=O)[O-])c1)C1C=CC2C12CC2 (stereo unspecified)	-11
COCCCNC(=O)CCc1c(C)nc2c(-c3ccc(F)cc3)c(C)nn2c1C	26
O=C(O)c1ccc(N2CC3CC(C2)c2cccc(=O)n2C3)c(NS(=O)(=O)c2cccc(C(F)(F)F)c2)c1 (stereo unspecified)	11
COc1ccc(/C(N)=N/OC(=O)CN(C)S(=O)(=O)c2ccc(C)cc2)cc1	13
Cc1ccc(NCc2nnc(SCC(N)=O)n2CC2CCCO2)c(C)c1 (stereo unspecified)	8
C[C@@H]1CC[C@@]2(O[C@H](CCO)C[C@H](O)[C@H]2O)O1	19
COc1ccccc1-c1nnc(NC(=O)C(C)Sc2nncn2C)s1 (stereo unspecified)	27
CC(Oc1ccccc1)C(=O)Nc1oc(-c2ccco2)c(-c2ccco2)c1C#N (stereo unspecified)	9
CC1SC(=NC(=O)c2ccncc2)NC1=O (stereo unspecified)	18
O=C(/C=C/c1ccc(Cl)cc1Cl)N1CCN(c2ccccc2[N+](=O)[O-])CC1	-11
Cc1nnc(NC(=O)c2ccc3c(c2)OCO3)s1	-8

Some values from the entries so far:
Cc1cccc(NNC(=O)C(=O)NNc2cccc(C)c2)c1 in Biofilm kill mix reads 1
Cc1nnc(NC(=O)c2ccc3c(c2)OCO3)s1 in Biofilm kill mix reads -8
CCOc1ccc(CNc2ccc(CNc3ncn[nH]3)cc2)cc1 in Biofilm kill mix reads 16
C[C@@H]1CC[C@@]2(O[C@H](CCO)C[C@H](O)[C@H]2O)O1 in Biofilm kill mix reads 19
Cc1cc(=O)[nH]c(SCC(=O)Nc2ccc(C)c(S(=O)(=O)N3CCCCC3)c2)n1 in Biofilm kill mix reads 19
O=C(O)c1ccc(N2CC3CC(C2)c2cccc(=O)n2C3)c(NS(=O)(=O)c2cccc(C(F)(F)F)c2)c1 (stereo unspecified) in Biofilm kill mix reads 11

Carrying on:
SMILES	Biofilm kill mix
CCOC(=O)Cc1csc(NC(=O)COc2ccc3c(C)cc(=O)oc3c2)n1	3
CC1(C)Cc2ccccc2C2=C(C(=O)N3CCCCCC3)C(=O)C(=O)N21	15
COc1ccc(/C=C2/SC(=S)N(c3ccc(S(=O)(=O)Nc4nccs4)cc3)C2=O)cc1	6
Clc1ccc(/C=C/c2nc(Cl)c(-c3ccc(Cl)cc3)c(Cl)n2)cc1	12
Cc1ccc(C(=O)NCCc2ccc(F)cc2)s1	16
O=C1S/C(=C\C=C\c2ccco2)C(=O)N1c1ccccc1	15
CC(Oc1ccc(C#N)cc1)C(=O)c1ccc(F)c(F)c1 (stereo unspecified)	10
CCc1ccc(S(=O)(=O)Nc2cccc(-c3ccc4nncn4n3)c2)s1	18
CC1=C(C(=O)Nc2ccccc2C)C2(CCCCC2)C(C(N)=O)C(=S)N1 (stereo unspecified)	8
O=S(=O)(c1ccccc1Oc1ccc(Cl)cc1Cl)N1CCCCC1	23
Cc1cc(C)c2c(=O)[nH]c(SCc3ccccc3C)nc2n1	12
O=C(Cc1ccccc1)Nc1ccc(NC(=O)c2cccs2)cc1Cl	14
Oc1ccc(/C=C/c2ccnc3ccccc23)cc1	-11
COc1ccc(S(=O)(=O)Nc2ccc(NC(C)=O)cc2)cc1Br	18
Cc1ccc(C(C(=O)NC2CCCC2)N(Cc2ccc3c(c2)OCO3)C(=O)c2snc(C(N)=O)c2N)cc1 (stereo unspecified)	19
Cc1cccc(OCCn2c(=O)sc3ccccc32)c1	14
O=C(Nc1ccc(O)c2c(=O)cc(-c3ccccc3Cl)oc12)c1ccc(F)cc1	12
CCn1c(O)c(C=NCc2ccccc2)sc1=S	13
CC(C)(O)C(O)COc1c2ccoc2cc2oc(=O)ccc12 (stereo unspecified)	24
O=S(=O)(c1ccc(F)cc1)c1nc(-c2ccco2)oc1Nc1ccccc1	15
c1ccc(-c2ccc(CN3C[C@@H]4C(c5ccccc5)C5(c6cccnc6)CC4(C5)[C@H]3c3ccccc3)cc2)cc1 (stereo partly specified)	11
CC(=O)N1CCN(Cc2nc3cc(NC(=O)c4cccc(Br)c4)ccc3n2C)CC1	26
CCCC(=O)NC(c1ccc2c(c1)OCO2)c1cc(Cl)c2cccnc2c1O (stereo unspecified)	14
CCCCNC(=O)CO/N=C(\C)c1cc2ccccc2o1	14
N/C(CCS(=O)(=O)c1ccc(Cl)cc1)=N\OC(=O)c1ccccc1C(F)(F)F	13
Cn1c(=O)[nH]c(=O)c2c1nc(SCCO)n2CC(O)COc1ccccc1 (stereo unspecified)	13
O=C(CSc1ncn[nH]1)Nc1ccc2c(c1)CCC2	5
O=C(O)Cc1ccc(NC(=O)Nc2ccc(Br)cc2)cc1	1
O=C(NCC1CCCO1)c1ccc(Oc2ccc([N+](=O)[O-])cc2Cl)cc1 (stereo unspecified)	2
O=C(OCC(=O)N1CCCC1)c1ccc(OC(F)(F)F)cc1	24
Cc1ccc2nc(-c3ccc(NC(=O)CSc4nc(N)cc(=O)[nH]4)cc3)sc2c1	13
Cn1nnnc1SCc1ccc(CSc2nnnn2C)cc1	0
CCOc1ccccc1N1CCN(C(=S)Nc2ccc(S(N)(=O)=O)cc2)CC1	3
CCc1ccc(CC(=S)N2CCOCC2)cc1	7
O=C(CCCN1C(=O)c2cccc3cccc(c23)C1=O)N1CCN(c2ccc(F)cc2)CC1	1
COc1ccc(NC(=O)c2cc(OC)c(OC)c(OC)c2Br)cc1OC	33
COc1cc(CNCCc2ccccc2F)ccc1OCC(=O)N1CCCCC1	13
O=C(COC(=O)c1cnccn1)NCc1ccc2c(c1)OCO2	11
CCCc1cc(=O)[nH]c(SCC(=O)NC2CCCc3ccccc32)n1 (stereo unspecified)	13
Cc1ccc(Cn2nnnc2CN2CCC(NC(=O)c3ccc(Br)cc3)CC2)cc1	12
C=CCc1c(C)nc(-c2ccccc2)nc1Nc1ccccc1O	9
CC(C)CNC(=O)COC(=O)CNC(=O)c1cc(Cl)cc([N+](=O)[O-])c1	13
O=C(Cc1ccc(-n2c(=O)[nH]c3ccsc3c2=O)cc1)NCc1cccnc1	5
O=C(CCN1CCN(C/C=C/c2ccccc2)CC1)Nc1ccc(Cl)cc1	6
O=C(CNC(=O)c1ccccc1)N/N=C/c1cc(Br)ccc1O	11
COCCCNC(=O)CCn1c(=O)c2ccccc2n(CC(=O)NCCC2=CCCCC2)c1=O	26
Nc1[nH][nH]c(=O)c1N=Nc1ccc2c(c1)OCO2	22
CCOC(=O)N1CCc2c(sc3c2c(=O)n(Cc2ccccc2)c(=O)n3Cc2ccccc2F)C1	1
CCC(C(=O)Nc1sc(C(N)=O)c(C)c1C(=O)OC)c1ccccc1 (stereo unspecified)	-6
N=C(c1ccc([N+](=O)[O-])cc1)N1CCCCCC1	16
Cc1nnc(SCC(=O)NNC(=O)c2ccccc2)n1-c1ccccc1	9
COC(=O)[C@@]1(Cc2ccc(OC)cc2)[C@H]2c3cc(C(=O)N(C)C)[nH]c3C[C@H]2CN1C(=O)c1ccccc1	15
Cc1ccc(NC(=O)CSc2ncc(S(=O)(=O)c3ccccc3)c(=O)[nH]2)cc1C	16
COc1cccc(/C=C(/C#N)c2ccc(F)cc2)c1OCc1cccc(C(=O)O)c1	20
CCC(C)(C)NC(=O)C(C)OC(=O)c1nsc(Cl)c1Cl (stereo unspecified)	2
COc1cccc(NC(=O)Nc2cc(C(=O)O)ccc2C)c1	14
Cc1ccc(OCC(=O)N/N=C/c2cc([N+](=O)[O-])ccc2N2CCCCC2)cc1	19
CCOc1ccccc1Cn1c(=O)oc2ccc(C)cc21	21
CN(C)c1ccc(C(CNC(=O)c2ccccc2)c2c[nH]c3ccccc23)cc1 (stereo unspecified)	8
Cc1nc(CS(=O)(=O)c2ccccn2)sc1C(=O)NNC(=O)c1ccccc1	3
Following part:
SMILES	Biofilm kill mix
CC1(C)CC(=O)C(Sc2ccc(Br)cc2)=C(O)C1	9
O=[N+]([O-])c1cccc(-c2noc(-c3cccs3)n2)c1	24
CC1=CC2=NC(=O)/C(=C\c3ccc(-c4ccc(Cl)cc4)o3)C(=N)N2O1	9
CCCC(=O)Nc1ccc(C(=O)NCCc2ccc(F)cc2)cc1	8
CCSc1nnc(NC(=O)c2cc(-c3ccccc3O)n[nH]2)s1	9
COC(=O)c1ccccc1NCCO	-6
C/C(CC(=O)Nc1c(C)cc(C)cc1C)=N\NC(=O)OC(C)(C)C	20
C/C(Cn1cnc([N+](=O)[O-])n1)=N\NC(=O)c1ccc(F)cc1	16
CSCCC(NC(=O)c1ccccc1Br)C(=O)N1CCC(C)CC1 (stereo unspecified)	-8
CN1CCN(C(=O)C2=C[C@H](c3ccc(Br)cc3)C[C@H](OCCCCO)O2)CC1	22
O=C(O)c1cc(N/N=C/C=C/c2ccccc2[N+](=O)[O-])ccc1Cl	-3
CCCOc1cccc(-c2cc(C(=O)NN)c3ccccc3n2)c1	17
CCOCCCNC(=O)CN1C(=O)/C(=C/c2ccccc2)Sc2ccccc21	4
CN(c1ccccc1)S(=O)(=O)c1cccc(C(=O)OCC(=O)NCc2ccc3c(c2)OCO3)c1	10
COc1ccccc1NC(=S)NC(=O)/C=C/c1cccs1	16
Cc1ccc(NC(=S)N2CCOCC2)cc1	2
O=S(=O)(/C=C/c1ccccc1)Nc1cccc(S(=O)(=O)NC2=NCCC2)c1	8
Cc1ccc(S(=O)(=O)C2(C(=O)NCc3ccccc3Cl)CC2)cc1	13
COc1ccc(C(=O)Nc2ccc(NC(=O)c3cccs3)cc2)cc1Cl	8
Cc1ccc2nc(-c3ccc(SCC(=O)Nc4ccc5c(c4)OCCO5)nc3)[nH]c2c1	26
CC(=O)c1c(C)[nH]c(C(=O)CSc2nnc3ccccn23)c1C	7
C/C(=N\NC(=O)c1cccc([N+](=O)[O-])c1)c1ccncc1	5
CCOc1ccc(NC(=O)CC2C(=O)N(c3ccc(OC)cc3)C(=S)N2Cc2ccccn2)cc1 (stereo unspecified)	12
CC(C)CC(NC(N)=O)C(=O)NCc1ccc(Cl)cc1 (stereo unspecified)	12
CCC(CC)c1nnc(NC(=O)CS(=O)(=O)Cc2ccccc2)s1	9
CC1CCc2c(sc(NC(=O)c3ccccc3C(=O)O)c2C#N)C1 (stereo unspecified)	27
O=C(COc1ccc(Cl)cc1Cl)N(c1ccccn1)C1CCCCC1	23
COc1ccc(CCNC2=NCCS2)cc1OC	-1
Cc1cc(NC(=O)c2cc(-c3ccc(O)cc3)on2)no1	15
O=C(Nc1ccccc1)N1CCNCC1	18

Not a retest: an excerpt of the list.
SMILES	Biofilm kill mix
O=C(COc1ccc(Cl)cc1Cl)N(c1ccccn1)C1CCCCC1	23
COc1ccc(CCNC2=NCCS2)cc1OC	-1
Cc1cc(NC(=O)c2cc(-c3ccc(O)cc3)on2)no1	15
O=C(Nc1ccccc1)N1CCNCC1	18

More records
SMILES	Biofilm kill mix
COc1ccc(NS(=O)(=O)c2cccc(NC(=O)CCS(=O)(=O)c3ccccc3)c2)cc1	21
COc1ccc(/C=N/NC(=O)c2[nH]nc3c2CCc2ccccc2-3)cc1OC	11
O=S(=O)(c1ccc(NC(=S)N/N=C/c2c3ccccc3cc3ccccc23)cc1)N1CCOCC1	16
Cc1ccc(S(=O)(=O)N2CCOCC2)cc1C(=O)N(C)CCOc1ccc(Cl)cc1	26
CCOc1cc(NC(=S)NCCCN2CCOCC2)c(OCC)cc1NC(=O)c1cccc(F)c1	6
CCCCn1c(=O)[nH]c2nc3cc(N)ccc3nc2c1=O	5
C/C(=N/NC(=O)c1ccccn1)c1c[nH]c2ccccc12	9
CC(C)N(Cc1cnn(C)c1)Cc1nc(Cc2ccccc2Cl)no1	29

In the list so far, 5 have a cyano group.
SMILES	Biofilm kill mix
CNS(=O)(=O)c1cccc(C(=O)OCC(=O)N(CCC#N)c2ccccc2)c1	9
CC(Oc1ccccc1)C(=O)Nc1oc(-c2ccco2)c(-c2ccco2)c1C#N (stereo unspecified)	9
CC(Oc1ccc(C#N)cc1)C(=O)c1ccc(F)c(F)c1 (stereo unspecified)	10
COc1cccc(/C=C(/C#N)c2ccc(F)cc2)c1OCc1cccc(C(=O)O)c1	20
CC1CCc2c(sc(NC(=O)c3ccccc3C(=O)O)c2C#N)C1 (stereo unspecified)	27

Screening results: PubChem BioAssay, PCMD

An excerpt (hit frequency here may not be typical).
